# Polio RdRp inh – poliovirus RNA polymerase inhibition; P03300; actives 0.66% (n = 150,000); poliovirus polymerase elongation, fluorescence polarization; hits give low values; % elongation, % (compound at 16.7 µg/mL); AID 588519; in the data active = % elongation below about 90%; note: some results filed as inactive read as strong as hits
# Target sequence (P03300 1749-2209 limits assumed): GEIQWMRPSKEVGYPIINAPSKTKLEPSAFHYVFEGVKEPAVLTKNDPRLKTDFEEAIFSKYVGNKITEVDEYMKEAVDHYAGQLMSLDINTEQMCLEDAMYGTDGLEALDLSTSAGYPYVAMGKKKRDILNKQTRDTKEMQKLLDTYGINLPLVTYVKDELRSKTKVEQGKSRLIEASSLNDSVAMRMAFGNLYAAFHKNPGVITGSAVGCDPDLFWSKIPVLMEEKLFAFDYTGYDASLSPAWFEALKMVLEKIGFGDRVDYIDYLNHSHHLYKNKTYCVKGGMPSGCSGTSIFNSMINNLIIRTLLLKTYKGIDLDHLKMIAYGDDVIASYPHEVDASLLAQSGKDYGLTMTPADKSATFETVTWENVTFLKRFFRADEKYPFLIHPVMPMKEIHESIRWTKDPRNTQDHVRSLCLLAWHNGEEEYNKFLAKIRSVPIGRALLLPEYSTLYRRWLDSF
# Polio RdRp inh intensity – further read-out of Polio RdRp inh, marked with its call; % elongation; measured here: total intensity read-out; formula for this scale not given here;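 total fluorescence in place of polarization; lower means less elongation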
# * hit, by the source's call. An excerpt, so the mix of outcomes need not match the whole.
SMILES,Polio RdRp inh,Polio RdRp inh intensity
Cc1ccc2nc(SCc3nc(-c4ccc(Cl)cc4)no3)[nH]c2c1,103,102
Cc1c(CCNC(=O)c2c(F)cccc2F)sc2nc(-c3ccc(F)cc3)nn12,103,96
COc1ccc(-n2nc(C(=O)NCc3ccc(F)cc3)c3c4ccccc4n(C)c3c2=O)cc1,111,112
O=C(CCc1nnc2n(Cc3ccccc3Cl)c(=O)c3ccccc3n12)Nc1ccccc1,103,109
COc1ccc(-n2c(=O)c3c(C)c(C)sc3n(CC(=O)NCc3ccc(C)cc3)c2=O)c(OC)c1,104,106
COc1ccc(-c2oc3ncn4nc(COc5ccccc5C)nc4c3c2-c2ccc(OC)cc2)cc1,109,109
Cc1ccccc1NC(=O)CSc1nc2ccccc2c2nc(CCn3c(C)nc4ccccc43)nn12,106,108
Cc1ccc(/C=C/c2onc(C)c2S(=O)(=O)N2CCC(C(=O)N3CCOc4ccccc43)CC2)cc1,105,97
Cc1c(CC(=O)NCc2ccccc2)c(=O)oc2c(C)c(O)ccc12,109,110
O=C(COCc1cc(-c2ccc(F)cc2)on1)Nc1cccc(C(F)(F)F)c1,109,109
CCCOc1ccc(NC(=O)CC2C(=O)N(c3cccc(OC)c3)C(=O)N2Cc2cccs2)cc1 (stereo not given),110,108
CCc1ccc(C(=O)c2cn(CC(=O)Nc3ccc(Cl)cc3)c3cc4c(cc3c2=O)OCO4)cc1,107,108
COc1ccc(Cl)cc1NC(=O)Cn1cc(C(=O)c2ccncc2)c(=O)c2cc(C)ccc21,113,125
COc1ccccc1N1CCN(C(=O)CCNS(=O)(=O)c2ccc3c(c2)CCN3C(=O)C2CC2)CC1,111,108
Cc1[nH]c2ccccc2c1C1N2CC3(C)CN1CC(C)(C2)C3=O (stereo not given),109,107
CCSc1ncc(Cl)c(C(=O)Nc2cc(C)ccc2C)n1,115,116
CCn1cc(C(=O)NCCc2ccccc2)c(=O)c2cc(S(=O)(=O)N3CCc4ccccc4C3)ccc21,103,105
COc1ccc(S(=O)(=O)N(CC(=O)Nc2ccccc2Br)Cc2ccccc2)cc1,106,111
FC(F)(F)c1ccc(-c2noc(-c3ccccc3Br)n2)cc1,111,110
CCN(CC)S(=O)(=O)c1cc(-c2nnc(Nc3ccc(OC)c(C(N)=O)c3)c3ccccc23)ccc1C,107,107
O=C(Nc1cccc(F)c1)C1CCCN(S(=O)(=O)c2cccc3cccnc23)C1 (stereo not given),104,111
O=C1C2=C(Nc3ccccc3SC2c2c(F)cccc2Cl)c2ccccc21 (stereo not given),112,111
CN(C(=O)c1ccc2c(c1)N(Cc1cccc(Cl)c1)C(=O)c1ccccc1S2=O)C1CCCCC1 (stereo not given),101,109
Cc1nc(SCC(=O)Nc2ccccc2Cl)cc(-c2ccccc2)n1,99,98
Cc1cc(Br)cc2c(C(=O)OCC(=O)c3ccccc3)cc(-c3ccccc3)nc12,108,108
Cc1ccc(C)c(NC(=O)CCN2C(=O)c3ccccc3Sc3ncccc32)c1,107,110
Cc1ccc(CNC(=O)C2CCN(S(=O)(=O)c3ccc4c(c3)CCCN4C(=O)C3CCC3)CC2)cc1,112,114
CCCc1cc(=O)n2[nH]c(NCc3ccccc3OC)nc2n1,116,109
CCOc1ccc(N2CC(NC(=O)/C=C\c3ccc4c(c3)OCO4)CC2=O)cc1 (stereo not given),113,112
CCc1ccc(S(=O)(=O)c2nnn3c2nc(N2CCOCC2)c2sccc23)cc1,108,113
COc1cccc(/C=C/c2nc(C#N)c(N3CCN(C)CC3)o2)c1,105,110
CC(C)c1nc2ccc(C(=O)NCCCN3CCN(c4ccccc4)CC3)cc2o1,114,103
COc1ccc(CCNC(=O)c2c(C)nn(-c3ccc(F)cc3)c2-n2cccc2)cc1OC,106,106
COc1ccccc1N1CCN(C(=O)c2cc3c(=O)oc4ccc(C)cc4c3s2)CC1,103,100
COc1cccc(CNC(=O)CSc2ncc(S(=O)(=O)c3ccc(Br)cc3)c(=O)[nH]2)c1,107,113
CCc1nn(CC(=O)Nc2c(C)cccc2C)c(=O)c2cc3sccc3n12,106,110
Cc1ccc(-n2nc3c(=O)n(CCCC(=O)NCCc4ccccc4)nc(C)c3c2C)cc1,110,97
Cc1cc2[nH]c(=O)c(=O)[nH]c2cc1S(=O)(=O)N1CCN(c2ccccc2F)CC1,106,115
CCOc1ccc(NC(=O)c2ccc3nc(C(C)C)oc3c2)cc1,108,112
CN1CC(=O)Nc2cc(C(=O)O)ccc21,113,109
COc1ccc(NC(=O)C(c2ccc(C)cc2)N(C)C(=O)Cc2cccs2)cc1 (stereo not given),109,110
O=C(Cn1ccc2cc(S(=O)(=O)N3CCCCCC3)ccc21)NCCc1ccc(Cl)cc1,99,101
CCCOc1ccc(CN2C(=O)C(=O)c3cccc(C)c32)cc1,106,108
Cc1ccccc1NC(=O)Cn1c(=O)n(CC2CCC(C(=O)NCCc3ccccc3)CC2)c(=O)c2ccccc21 (stereo not given),110,107
COc1cccc(CNC(=O)Cn2cc3c(n2)-c2c(oc(C(=O)N4CCCC4)c2C)CC3)c1OC,109,114
CCc1nonc1NC(=O)c1oc2ccc(F)cc2c1C,115,109
CCOc1ccc(OCC)c(NC(=O)c2cnn(-c3ccc(F)cc3)c2-n2cccc2)c1,106,110
COc1ccc(S(=O)(=O)N2CCCCC2)cc1C(=O)NC1CCS(=O)(=O)C1 (stereo not given),110,104
COc1cc(-c2nc3sccn3c2Nc2cccc(C)c2)ccc1O,101,105
CC(=O)NCCNC(=O)CCCc1nnc2n(CC(C)C)c(=O)c3sccc3n12,111,113
CCOC(=O)CSc1nc2ccc(NC(=O)c3ccc(C)cc3)cc2s1,110,118
COc1ccc(NC(=O)Cn2c(=O)c3ccccc3n3nncc23)cc1Cl,110,111
CC(C)c1ccc(NC(=O)CSC2=Nc3ccccc3C3=NC(CCC(=O)NCc4ccco4)C(=O)N23)cc1 (stereo not given),108,111
COCCn1c(=O)[nH]c2cc(C(=O)Nc3ccc(OC)cc3)ccc2c1=O,98,99
COc1ccc2[nH]cc(S(=O)(=O)c3ccc(C)cc3)c2c1,101,104
COc1ccccc1N(CC(=O)Nc1ccc(C)c(Cl)c1)S(=O)(=O)c1ccc(C)cc1,107,106
COc1ccc(S(=O)(=O)NCCc2csc3nc(-c4ccc(Cl)cc4)nn23)cc1C,110,103
COc1cc(-c2noc(-c3ccc(NCc4ccco4)c([N+](=O)[O-])c3)n2)cc(OC)c1OC,106,109
Cc1ccccc1OCCCCn1c(-c2ccc(Cl)cc2)nc2ccccc2c1=O,104,110
COc1ccc(CNC(=O)C2CCC(CNS(=O)(=O)c3cccs3)CC2)cc1 (stereo not given),108,110

# Seven entries already listed, arranged by molar mass, ascending:
SMILES,Polio RdRp inh,Polio RdRp inh intensity
COc1cc(-c2nc3sccn3c2Nc2cccc(C)c2)ccc1O,101,105
COCCn1c(=O)[nH]c2cc(C(=O)Nc3ccc(OC)cc3)ccc2c1=O,98,99
COc1ccc(NC(=O)Cn2c(=O)c3ccccc3n3nncc23)cc1Cl,110,111
Cc1ccccc1OCCCCn1c(-c2ccc(Cl)cc2)nc2ccccc2c1=O,104,110
COc1ccc(CNC(=O)C2CCC(CNS(=O)(=O)c3cccs3)CC2)cc1 (stereo not given),108,110
COc1ccc(S(=O)(=O)NCCc2csc3nc(-c4ccc(Cl)cc4)nn23)cc1C,110,103
CC(C)c1ccc(NC(=O)CSC2=Nc3ccccc3C3=NC(CCC(=O)NCc4ccco4)C(=O)N23)cc1 (stereo not given),108,111

# The listing picks up, repeating the 5 entries before the break.
SMILES,Polio RdRp inh,Polio RdRp inh intensity
COc1ccccc1N(CC(=O)Nc1ccc(C)c(Cl)c1)S(=O)(=O)c1ccc(C)cc1,107,106
COc1ccc(S(=O)(=O)NCCc2csc3nc(-c4ccc(Cl)cc4)nn23)cc1C,110,103
COc1cc(-c2noc(-c3ccc(NCc4ccco4)c([N+](=O)[O-])c3)n2)cc(OC)c1OC,106,109
Cc1ccccc1OCCCCn1c(-c2ccc(Cl)cc2)nc2ccccc2c1=O,104,110
COc1ccc(CNC(=O)C2CCC(CNS(=O)(=O)c3cccs3)CC2)cc1 (stereo not given),108,110
Cc1ccc(C)c(NC(=O)CN(C)S(=O)(=O)c2cccc3cccnc23)c1,105,109
COc1ccc(Br)cc1CNC(=O)c1cnc2sc(N3CCCC3)nn2c1=O,108,112
Cc1ccc(CNC(=O)c2c[nH]n3c(=O)c(Cc4ccc(Cl)cc4)c(C)nc23)cc1,106,109
CN1C(C(=O)Nc2cccc(O)c2)=CC(c2cccs2)=NS1(=O)=O,106,110
Cc1cccc(-n2c(SCC(=O)c3ccccc3)nnc2-c2ccc(Br)cc2)c1,107,108
CCOc1ccc2c(c1)c(=O)c(S(=O)(=O)c1ccccc1)cn2CC(=O)Nc1ccccc1OC,109,112
CC(C)C(=O)Nc1nnc2n1CCS2,109,116
Cc1ccc2c(c1)N(CC(=O)NCCCN1CCCCC1C)C(=O)c1cccnc1O2 (stereo not given),109,105
COc1ccc(C(=O)NCCn2cc(SCC(=O)Nc3ccccc3)c3ccccc32)cc1OC,105,109
CCCOc1cccc(C(=O)Nc2cccc(-c3nc4ncccc4o3)c2C)c1,108,112
CCOC(=O)Cn1c(=O)oc2cc(S(=O)(=O)Nc3cc(OC)cc(OC)c3)ccc21,102,106
Cc1ccc(C)c(NS(=O)(=O)c2ccc3oc(=O)c4ncn(C)c4c3c2)c1,101,102
O=S(=O)(c1ccc(Br)cc1)c1nnn2c1nc(NCCc1ccccc1)c1sccc12,111,109
CNC(=O)C1CCC(Cn2c(=O)c3sccc3n(CC(=O)NCc3ccc(C)cc3)c2=O)CC1 (stereo not given),109,106
COc1ccc(C(=O)CC2(O)C(=O)N(Cc3ccccc3Cl)c3ccccc32)cc1 (stereo not given),106,107
CCOc1ccc(CCNC(=O)CCn2c(=O)c3cccn3c3ccc(F)cc32)cc1,111,113
N#C/C(=C\c1ccccc1F)c1nc2ccccc2c(=O)[nH]1,108,111
CC(C)CCNC(=O)c1cccc(-n2cnc3cccnc32)c1,107,101
COc1ccccc1C(=O)Nc1ccccc1C(=O)OCc1cc(=O)n2c(C)csc2n1,109,100
CC1CCC(Nc2nc3c(-c4ccc(Cl)cc4)nnn3c3ccccc23)CC1 (stereo not given),109,110
CCC(C)NC(=O)c1ccc2c(c1)N(Cc1ccccc1)C(=O)c1ccccc1S2 (stereo not given),98,96
Cc1cc(Cl)ccc1OCC(=O)N1CCC(c2nc3ccccc3o2)CC1,106,109
COc1cccc(CSc2nc3n(n2)C(CC(C)C)C(C(=O)Nc2ccccc2OC)=C(C)N3)c1 (stereo not given),106,113
COc1ccc(N2CCN(S(=O)(=O)CCNC(=O)c3ccc(OC(C)C)cc3)CC2)cc1,109,109
Cc1ccc(C)c(Cn2c(=O)n(Cc3ccc4c(c3)OCO4)c(=O)c3oc4ccccc4c32)c1,107,111
O=C(CCn1c(=O)c2cccn2c2cccnc21)Nc1ccccc1Br,107,112
CCOC(=O)c1ccccc1NC(=O)Cn1c(=O)n(Cc2ccc(C(=O)NCc3ccc4c(c3)OCO4)cc2)c(=O)c2ccccc21,110,110
COc1cccc(C(=O)Nc2ccc3nc(SCC(=O)N4CCOCC4)sc3c2)c1,107,105
COc1ccc(-n2cc(C(=O)Nc3ccccc3C#N)c3ccccc3c2=O)cc1,102,97
COCc1cc(C)nc2c1C(=O)NC(c1ccc(NC(C)=O)cc1)N2Cc1ccccc1 (stereo not given),104,108
CCc1ccccc1NC(=O)c1sc(-n2nc(C)c(Cc3ccc4c(c3)OCO4)c2C)nc1C,101,93
CCOc1ccc(NC(=O)Cn2cc(C(=O)c3ccccc3)c(=O)c3cc4c(cc32)OCO4)cc1,105,115
CCOc1ccc(-n2nc(CO)c(C(=O)NCC(c3ccccc3)c3ccccc3)n2)cc1,107,111
COc1ccc(Cl)cc1NC(=O)CSc1ccc2nnc(CCNS(=O)(=O)c3ccccc3)n2n1,114,112
Cc1ccc(CSC2=NC(C)(C)Nc3ccccc32)c(C)c1,102,97
Cc1nn(S(=O)(=O)c2ccc(C(C)C)cc2)c(C)c1S(=O)(=O)N1CCCCC1,107,110

# Brought forward from above: 4 entries, then new ones.
SMILES,Polio RdRp inh,Polio RdRp inh intensity
CCOc1ccc(-n2nc(CO)c(C(=O)NCC(c3ccccc3)c3ccccc3)n2)cc1,107,111
COc1ccc(Cl)cc1NC(=O)CSc1ccc2nnc(CCNS(=O)(=O)c3ccccc3)n2n1,114,112
Cc1ccc(CSC2=NC(C)(C)Nc3ccccc32)c(C)c1,102,97
Cc1nn(S(=O)(=O)c2ccc(C(C)C)cc2)c(C)c1S(=O)(=O)N1CCCCC1,107,110
Cc1ccc(Cl)cc1NC(=O)CCCn1c(=O)c2cccn2c2ccccc21,106,111
CCOC(=O)c1c(C)[nH]c(C)c1S(=O)(=O)NCC(=O)N1CCN(c2cc(Cl)ccc2C)CC1,103,98
CCn1c(=O)cc(OCC(=O)N2CCN(c3cccc(C)c3C)CC2)c2ccccc21,99,95
CC(C)(C)C1CCc2nc(NC(=O)Cc3ccccc3)sc2C1 (stereo not given),107,108
CC(=O)Nc1nnc(SCc2cc(=O)c3cccc(C)c3[nH]2)s1,110,107
COc1ccccc1NC(=O)C1=C(C)Nc2nc(SCc3ccc(Cl)cc3)nn2C1c1ccccc1Cl (stereo not given),108,110
CCc1ccccc1Nc1nn2c(=O)c3ccc(C(=O)NCc4cccs4)cc3nc2s1,100,104
Cc1ccc(CN2CCC(CNc3ncnc4onc(-c5ccc(F)cc5)c34)CC2)cc1,114,115
CCCCCCc1c(C)c2c(cc(C)c3c(C)c(C)oc32)oc1=O,100,95
Cc1ccc(S(=O)(=O)c2cc3cc(C(=O)Nc4ccc(C)cc4C)ccc3oc2=O)cc1,102,104
COc1ccc(-c2nc3scc(CCNS(=O)(=O)c4ccc(C)cc4)n3n2)cc1,101,110
Cc1cc(OCC(=O)Nc2cnn(CCCC(=O)O)c2)ccc1Cl,100,105
COc1ccc(Nc2nc3ccc(Cl)cc3nc2-n2nc(C)cc2C)cc1,101,118
Cc1ccc(C(=O)Nc2nc(-c3nnn(-c4cccc(Cl)c4C)c3C)ns2)cc1C,114,112
COc1cccc(NC(=O)c2sc3nc(C)c(C(=O)Nc4ccc(Cl)cc4)c(-c4ccc(Br)cc4)c3c2N)c1,100,96
